Bioassay records from PubChem BioAssay.
UUG fidelity: modulators of yeast start codon fidelity, primary screen, whole organism, S. cerevisiae, single point, plate reader. S. cerevisiae UUG-firefly luciferase reporter, luminescence/redox ratio. activity score, % at 18.7 µM. 0.13% of 350,000 active;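 active = replicate mean at a twofold rise or more, about +100% in these data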;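 also: firefly luciferase made from a UUG start codon reports start codon fidelity; reporter light over untreated wells divided by growth signal over untreated wells; some hits fall short of that in this replicate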
Env fusion inh: inhibitors of HIV-1 Env-driven cell-cell fusion, primary screen, HeLa-JRFL effector, CEM21 target cells, luciferase. inhibition, % at 12.3 µM. 1.1% of 360,000 active. AID 651610, 2012;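 active = mean replicate inhibition score of at least 50 and every replicate individually at or above 50; inconclusive = only one of the two criteria met; inactive = mean below 50 and not all replicates reaching 50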;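 also: 0% = plate neutral controls and 100% = maraviroc near 300 nM; one replicate is shown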
Active calls of the source: *; ? = inconclusive; [ ] = another dose, or the depositor's remark.

Each structure is followed by: UUG fidelity	Env fusion inh
COc1ccc(S(=O)(=O)Nc2ccc3c(c2)CC(=O)N([C@H](C)CO)C[C@@H](C)[C@@H](CN(C)C(=O)Nc2ccccc2)O3)cc1
→ 27.2	-29.7[16.7 µM]
C[C@@H]1CCCCO[C@H](CN(C)Cc2ccc(Cl)c(Cl)c2)[C@@H](C)CN([C@@H](C)CO)C(=O)c2cc(NC(=O)Nc3ccccc3)ccc2O1
→ 1.7	21.5[16.7 µM]
CC(C)CC#Cc1ccc2c(c1)O[C@H](CN(C)C(=O)CC1CC1)[C@H](C)CN([C@H](C)CO)S2(=O)=O
→ -0.6	13.1[16.7 µM]
C[C@@H]1CCCCO[C@H](CN(C)S(C)(=O)=O)[C@@H](C)CN([C@H](C)CO)C(=O)c2cc(NC(=O)c3ccccc3)ccc2O1
→ 0.1	-25.8[16.7 µM]
C[C@H](NC(=O)C[C@H]1C=C[C@@H](NC(=O)c2cccnc2)[C@@H](CO)O1)c1ccccc1
→ -14.7	-41.4[16.7 µM]
CN(C)C(=O)C[C@H]1CC[C@H]2[C@@H](COC[C@@H](O)CN2CC2CCCCC2)O1
→ -13.5	8.0[16.7 µM]
CCCNC(=O)N(C)C[C@@H]1Oc2cc(C#CCN(C)C)ccc2S(=O)(=O)N([C@H](C)CO)C[C@H]1C
→ 1.2	-2.5[16.7 µM]
C[C@@H]1CN([C@H](C)CO)C(=O)c2cccc(NS(=O)(=O)c3ccccc3)c2O[C@H]1CN(C)C(=O)Nc1cccc2ccccc12
→ -3.0	3.0[16.7 µM]
O=C(C[C@@H]1CC[C@@H](NC(=O)c2cccnc2)[C@@H](CO)O1)NCc1ccncn1
→ -12.2	4.1[16.7 µM]
Cc1noc(C)c1NC(=O)N(C)C[C@H]1Oc2ccc(NC(=O)C3CCCCC3)cc2C(=O)N([C@@H](C)CO)C[C@@H]1C
→ -3.8	3.6[16.7 µM]
O=C(C[C@H]1CC[C@H](NC(=O)c2cccc(F)c2)[C@H](CO)O1)Nc1nccs1
→ -8.1	?
Cc1ccc(S(=O)(=O)Nc2ccc3c(c2)C(=O)N([C@@H](C)CO)C[C@@H](C)[C@H](CN(C)CC2CCCCC2)O3)cc1
→ 4.4	8.4[16.7 µM]
C[C@@H]1CN([C@H](C)CO)C(=O)c2cc(NC(=O)Cc3ccccc3)ccc2O[C@@H](C)CCCCO[C@H]1CN(C)C(=O)Nc1cccc2ccccc12
→ 7.8	21.9[16.7 µM]
COc1ccc(NC(=O)N(C)C[C@H]2Oc3c(NC(=O)Nc4ccc5c(c4)OCO5)cccc3C(=O)N([C@@H](C)CO)C[C@H]2C)cc1
→ 10.8	-23.3[16.7 µM]
O=C(NCC[C@@H]1CC[C@H](NC(=O)c2cnccn2)[C@H](CO)O1)Nc1ccc(F)cc1
→ 3.2	8.9[16.7 µM]
O=C(Cc1ccccc1)N[C@@H]1CC[C@@H](CC(=O)N2CCOCC2)O[C@H]1CO
→ 15.0	3.9[16.7 µM]
COCC#Cc1cnc2c(c1)C(=O)N([C@H](C)CO)C[C@H](C)[C@@H](CN(C)C(=O)Nc1ccc(OC)cc1)O2
→ 6.2	-14.1[16.7 µM]
C[C@@H]1CN([C@@H](C)CO)C(=O)c2cc(NC(=O)CCC(F)(F)F)ccc2O[C@@H]1CN(C)Cc1ccncc1
→ 10.7	5.4[16.7 µM]
O=C(Nc1ccc2c(c1)[C@@H]1C[C@@H](CC(=O)N3CCOCC3)O[C@@H](CO)[C@@H]1O2)C1CCOCC1
→ 2.2	-4.6[16.7 µM]
COc1ccc(S(=O)(=O)N[C@@H]2CC[C@H](CC(=O)N3CCc4ccccc4C3)O[C@@H]2CO)cc1
→ -0.5	19.0[16.7 µM]
CO[C@H]1CN(C)C(=O)c2ccc(NC(=O)c3ccc(F)cc3)cc2OC[C@@H](C)N(C)C[C@@H]1C
→ -0.3	-3.0[16.7 µM]
C[C@@H]1CN([C@H](C)CO)C(=O)c2cccc(NS(=O)(=O)c3ccccc3)c2O[C@H]1CN(C)Cc1ccc(Cl)c(Cl)c1
→ -8.9	26.3[16.7 µM]
C[C@H]1CN([C@@H](C)CO)C(=O)Cc2cc(NC(=O)CCN3CCOCC3)ccc2O[C@H]1CN(C)CC1CCCCC1
→ -15.7	22.7[16.7 µM]
C[C@@H]1CN([C@H](C)CO)S(=O)(=O)c2ccc(-c3cccc(C#N)c3)cc2O[C@H]1CN(C)Cc1ccccn1
→ -20.2	22.3[16.7 µM]
CN(C)CC(=O)N[C@H]1CC[C@H](CCn2cc(CN(C)C)nn2)O[C@@H]1CO
→ -10.2	-13.5[16.7 µM]
C[C@@H]1CN([C@@H](C)CO)S(=O)(=O)c2ccc(-c3ccc(C#N)cc3)cc2O[C@@H]1CN(C)C(=O)C1CC1
→ 21.0	-20.6[16.7 µM]
O=C(C[C@H]1C=C[C@@H](NC(=O)C2CCC2)[C@H](CO)O1)NCc1ccccc1Cl
→ -9.2	1.9[16.7 µM]
COc1ccc(NC(=O)Nc2ccc3c(c2)C(=O)N([C@@H](C)CO)C[C@H](C)[C@H](CN(C)S(=O)(=O)c2cccs2)OCCCC[C@H](C)O3)cc1
→ -10.5	16.3[16.7 µM]
C[C@@H]1CN([C@H](C)CO)C(=O)c2cc(NC(=O)C3CC3)ccc2O[C@@H]1CN(C)S(=O)(=O)c1ccc(F)cc1
→ 1.8	11.4[16.7 µM]
C[C@@H]1CCCCO[C@H](CN(C)Cc2ccc3c(c2)OCO3)[C@H](C)CN([C@H](C)CO)C(=O)c2cc(NC(=O)Nc3ccc(C(F)(F)F)cc3)ccc2O1
→ 25.3	2.8[16.7 µM]

Grouped by structure, those above with a CF3 group
Each structure is followed by: UUG fidelity	Env fusion inh
C[C@@H]1CN([C@@H](C)CO)C(=O)c2cc(NC(=O)CCC(F)(F)F)ccc2O[C@@H]1CN(C)Cc1ccncc1
→ 10.7	5.4[16.7 µM]
C[C@@H]1CCCCO[C@H](CN(C)Cc2ccc3c(c2)OCO3)[C@H](C)CN([C@H](C)CO)C(=O)c2cc(NC(=O)Nc3ccc(C(F)(F)F)cc3)ccc2O1
→ 25.3	2.8[16.7 µM]

(continued)
Each structure is followed by: UUG fidelity	Env fusion inh
C[C@H]1CN([C@@H](C)CO)C(=O)Cc2cc(NC(=O)Nc3ccccc3)ccc2O[C@@H]1CN(C)Cc1ccc(C(F)(F)F)cc1
→ 11.7	1.0[16.7 µM]
O=C(Nc1ccc2c(c1)[C@@H]1C[C@H](CC(=O)N3CCCCC3)O[C@@H](CO)[C@@H]1O2)C1CCC1
→ -1.9	4.3[16.7 µM]
Cc1ccc(-c2ccc3c(c2)O[C@H](CN(C)Cc2ccc(C(=O)O)cc2)[C@H](C)CN([C@H](C)CO)S3(=O)=O)cc1
→ 20.2	-10.8[16.7 µM]
Cc1ccc(-c2ccc3c(c2)O[C@@H](CN(C)C(=O)Nc2ccc(F)cc2)[C@H](C)CN([C@@H](C)CO)S3(=O)=O)cc1
→ -11.8	-26.1[16.7 µM]
C[C@@H]1CN([C@H](C)CO)C(=O)c2cc(NC(=O)NC3CCCCC3)ccc2O[C@H]1CN(C)Cc1ccncc1
→ -10.9	-2.7[16.7 µM]
Cc1ccc(S(=O)(=O)N(C)C[C@@H]2Oc3cc(-c4cccc(F)c4)ccc3S(=O)(=O)N([C@@H](C)CO)C[C@H]2C)cc1
→ -17.9	18.5[16.7 µM]
CC(C)NC(=O)N(C)C[C@@H]1Oc2cc(-c3cncnc3)ccc2S(=O)(=O)N([C@H](C)CO)C[C@@H]1C
→ -9.7	-22.2[16.7 µM]
CO[C@@H]1CN(C)C(=O)c2cc(NC(=O)CN(C)C)ccc2OC[C@@H](C)N(C(=O)C2CC2)C[C@H]1C
→ 29.4	15.8[16.7 µM]
C/C=C/c1cnc2c(c1)C(=O)N([C@@H](C)CO)C[C@H](C)[C@H](CN(C)C(=O)NCCC)O2
→ -1.9	-21.6[16.7 µM]
C[C@@H]1CCCCO[C@@H](CN(C)C(=O)Nc2ccccc2)[C@H](C)CN([C@@H](C)CO)C(=O)c2cc(N(C)C)ccc2O1
→ 7.5	-59.4[16.7 µM]
C[C@@H]1CN([C@@H](C)CO)C(=O)c2cccc(NC(=O)Nc3ccc(C(F)(F)F)cc3)c2O[C@@H]1CN(C)CC1CC1
→ -0.5	-21.5[16.7 µM]
Cc1noc(C)c1S(=O)(=O)Nc1ccc2c(c1)CC(=O)N([C@H](C)CO)C[C@H](C)[C@H](CN(C)Cc1ccc(Cl)c(Cl)c1)O2
→ 9.0	-101.0[16.7 µM]
C[C@H](CO)N1C[C@H](C)[C@H](CN(C)C(=O)c2cnccn2)Oc2ncc(C#CCC3CCCC3)cc2C1=O
→ 18.5	-12.7[16.7 µM]
C[C@H](CO)N1C[C@H](C)[C@@H](CN(C)Cc2ccc(C(=O)O)cc2)Oc2ccc(NS(=O)(=O)c3cn(C)cn3)cc2CC1=O
→ -26.3	-2.8[16.7 µM]
COc1ccc(CN(C)C[C@H]2Oc3ccc(NC(=O)Nc4cccc5ccccc45)cc3C(=O)N([C@@H](C)CO)C[C@@H]2C)cc1
→ -0.9	10.5[16.7 µM]
O=C(C[C@@H]1C[C@@H]2c3cc(NC(=O)NC4CCCC4)ccc3O[C@@H]2[C@H](CO)O1)NCc1ccc(Oc2ccccc2)cc1
→ 2.5	-2.7[16.7 µM]
C[C@@H]1CCCCO[C@H](CN(C)Cc2ccc(C(F)(F)F)cc2)[C@@H](C)CN([C@H](C)CO)C(=O)c2cc(NS(=O)(=O)c3ccc(F)cc3)ccc2O1
→ -0.5	28.8[16.7 µM]
Cc1ccc(S(=O)(=O)Nc2cccc3c2O[C@H](CN(C)S(=O)(=O)c2ccc(F)cc2)[C@@H](C)CN([C@@H](C)CO)C3=O)cc1
→ 17.9	-32.0[16.7 µM]
C[C@@H]1CN([C@H](C)CO)C(=O)c2cc(C3=CCCC3)cnc2O[C@H]1CN(C)C(=O)C1CCC1
→ -0.8	18.9[16.7 µM]
C[C@H]1CN([C@@H](C)CO)C(=O)c2cccc(NC(=O)Nc3ccc(C(F)(F)F)cc3)c2O[C@H]1CN(C)Cc1ccc(Cl)c(Cl)c1
→ 7.8	-18.2[16.7 µM]
C[C@@H]1CN([C@@H](C)CO)C(=O)Cc2cc(NC(=O)Nc3ccccc3)ccc2O[C@@H]1CN(C)Cc1ccc(C(=O)Nc2ccccc2N)cc1
→ 7.3	-190.4[16.7 µM]
COc1ccc(CN(C)C[C@@H]2OCCCC[C@H](C)Oc3ccc(NC(=O)CCCN(C)C)cc3C(=O)N([C@H](C)CO)C[C@@H]2C)cc1
→ 0.2	-7.7[16.7 µM]
O=C(c1ccccc1)N1Cc2ccccc2[C@@H]2OC(c3ccc(OCCCO)cc3)=N[C@]2(Cc2ccccc2)C1=O
→ -5.2	1.6[16.7 µM]
C[C@@H]1CN([C@@H](C)CO)C(=O)c2cc(NS(=O)(=O)c3ccc(F)cc3)ccc2O[C@@H](C)CCCCO[C@H]1CN(C)S(=O)(=O)c1cn(C)cn1
→ -1.6	-10.5[16.7 µM]
C[C@H](CO)N1C[C@H](C)[C@@H](CN(C)C)OCCCC[C@H](C)Oc2ccc(NS(=O)(=O)c3ccc(F)cc3)cc2C1=O
→ -10.0	2.5[16.7 µM]
COCC(=O)Nc1ccc2c(c1)[C@@H]1C[C@H](CC(=O)N(C)C)O[C@H](CO)[C@@H]1O2
→ -5.8	11.0[16.7 µM]
N#C[C@@H]1[C@@H](c2ccc(C#Cc3cccc(F)c3)cc2)[C@@H](CO)N1C(=O)C1CC1
→ 0.3	9.7[16.7 µM]
O=S(=O)(N[C@@H]1CC[C@@H](CCn2cc(-c3ccccn3)nn2)O[C@H]1CO)c1cccc(Cl)c1
→ -11.4	1.2[16.7 µM]
C[C@@H](NC(=O)C[C@H]1CC[C@@H]2[C@H](COC[C@@H](O)CN2C)O1)c1ccccc1
→ -13.4	0.0[16.7 µM]
C[C@H](CO)N1C[C@H](C)[C@@H](CN(C)Cc2ccccc2)OCCCC[C@H](C)Oc2ccc(NC(=O)CCCN(C)C)cc2C1=O
→ -9.0	-36.5[16.7 µM]
C[C@@H]1CN([C@@H](C)CO)C(=O)Cc2cc(NC(=O)Nc3ccc4c(c3)OCO4)ccc2O[C@@H]1CN(C)Cc1ccc(Oc2ccccc2)cc1
→ 0.5	-25.7[16.7 µM]
COc1ccc(NC(=O)Nc2ccc3c(c2)C(=O)N([C@@H](C)CO)C[C@@H](C)[C@H](CN(C)S(=O)(=O)c2cn(C)cn2)O3)cc1
→ -3.7	2.6[16.7 µM]
Cc1ccc(S(=O)(=O)N(C)C[C@H]2OCCCC[C@H](C)Oc3ccc(NS(=O)(=O)c4c(C)noc4C)cc3C(=O)N([C@@H](C)CO)C[C@H]2C)cc1
→ -22.1	-52.6[16.7 µM]
COc1cccc(CN(C)C[C@H]2OCc3cn(nn3)CCCC(=O)N([C@@H](C)CO)C[C@@H]2C)c1
→ -16.2	-5.7[16.7 µM]
CCCC#Cc1cnc2c(c1)C(=O)N([C@H](C)CO)C[C@H](C)[C@H](CN(C)Cc1cccnc1)O2
→ -4.7	0.7[16.7 µM]
C[C@H](CO)N1C[C@H](C)[C@H](CN(C)S(C)(=O)=O)Oc2ncc(C#Cc3ccc(C(F)(F)F)cc3)cc2C1=O
→ -4.8	0.6[16.7 µM]
COc1ccc(NC(=O)N[C@H]2CC[C@@H](CCNC(=O)CN3CCOCC3)O[C@H]2CO)cc1
→ -4.9	1.4[16.7 µM]
COc1ccc(S(=O)(=O)N(C)C[C@@H]2Oc3ccc(NC(=O)NC(C)C)cc3C(=O)N([C@@H](C)CO)C[C@@H]2C)cc1
→ 1.7	-9.0[16.7 µM]
COc1ccccc1CNC(=O)C[C@H]1CC[C@H]2[C@H](COc3ccc(NC(C)=O)cc3C(=O)N2C)O1
→ 6.3	3.7[16.7 µM]

This is a subset (hit frequency here may not be typical).
